# Rce1 inh – yeast Rce1p protease inhibitors, primary screen, biochemical, fluorescence, cell-free homogeneous; yeast membranes, quenched prenylated peptide cleavage fluorescence; CAAX prenyl protease 2 (Saccharomyces cerevisiae (strain ATCC 204508 / S288c)), Q03530; actives 0.27% (n = 290,000); calls only;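 active = fall in fluorescence gain of 50% or more versus controls, with final raw signal at or below 3038400; inconclusive = same 50% fall but final raw signal above 3038400; inactive = fall in fluorescence gain under 50%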;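 note: plate controls were neutral control wells for no effect and wells lacking membranes for full effect; tested at 10 µM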
# Target sequence (Q03530 whole entry, looked up): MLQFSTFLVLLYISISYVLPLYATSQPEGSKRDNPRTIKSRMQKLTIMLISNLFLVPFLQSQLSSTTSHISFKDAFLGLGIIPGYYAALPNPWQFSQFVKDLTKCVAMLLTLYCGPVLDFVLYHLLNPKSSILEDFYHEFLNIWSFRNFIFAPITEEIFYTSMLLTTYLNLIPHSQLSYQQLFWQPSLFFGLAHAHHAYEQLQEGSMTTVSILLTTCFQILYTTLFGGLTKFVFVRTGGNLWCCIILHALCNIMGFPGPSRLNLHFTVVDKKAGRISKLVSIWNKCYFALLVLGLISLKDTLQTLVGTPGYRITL
# PABP polyA inh – PABP poly(A) RNA binding inhibitors, primary screen, biochemical, fluorescence polarization, uHTS; actives 1% (n = 290,000); inhibition, % at 35 µM;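 active = 50% or more with normal probe brightness, or confirmed in later tests; inconclusive = above 50% with abnormal brightness, or retests that disagree; inactive = below 50% or failed in later tests; about a fifth of its hits are not listed in these tables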;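 note: calls also rest on retests at 20 µM and on dose response follow-up; controls were probe without protein and protein plus probe with vehicle; some compounds called inactive have numbers as strong as hits; many hits fall short of the cut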
# Yeast UUG start – modulators of yeast start codon fidelity, primary screen, whole organism, S. cerevisiae, single point, plate reader; S. cerevisiae UUG-firefly luciferase reporter, luminescence/redox ratio; activity score, % at 18.7 µM; actives 0.13% (n = 350,000); AID 602363, 2012;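 active = replicate mean at a twofold rise or more, about +100% in these data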;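 note: firefly luciferase made from a UUG start codon reports start codon fidelity; reporter light over untreated wells divided by growth signal over untreated wells; some hits fall short of that in this replicate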
# eIF4H inh – human eIF4H binding inhibitors, primary screen, translation initiation inhibitor project, biochemical, uHTS, fluorescence polarization. Eukaryotic translation initiation factor 4H (Homo sapiens), Q15056. eIF4H fluorescence polarization binding assay. inhibition, % at 35 µM. actives 0.94% (n = 290,000);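 active = 50% or more with normal probe brightness, or confirmed in later tests; inconclusive = above 50% with abnormal brightness, or retests that disagree; inactive = below 50% or failed in later tests; about a fifth of its hits are not listed in these tables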;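 note: calls also rest on retests at 20 µM and on dose response follow-up; 0% = protein and probe with vehicle and 100% = probe without protein; strong numbers were not always called active; many hits fall short of the cut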
# HIV Env fusion – inhibitors of HIV-1 Env-driven cell-cell fusion, primary screen, HeLa-JRFL effector, CEM21 target cells, luciferase. inhibition, % at 12.3 µM. actives 1.1% (n = 360,000);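 active = mean replicate inhibition score of at least 50 and every replicate individually at or above 50; inconclusive = only one of the two criteria met; inactive = mean below 50 and not all replicates reaching 50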;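 note: 0% = plate neutral controls and 100% = maraviroc near 300 nM; one replicate is shown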
# CSC inhib – cancer stem cell viability inhibitors, primary screen, luminescence; cancer stem cell-like cells viability; inhibition, % at 7.5 µM; actives 1.1% (n = 300,000);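 active = mean at 75% or more and at least half the replicates too; inconclusive = mean and replicates disagree; tested in HMLE shEcad cells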;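 note: 0% = median of negative and 100% = median of positive control wells; the first replicate is given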
# MT1-MMP act inh – blockers of MT1-MMP proenzyme processing, primary screen, HT1080 RFP-PRO-GFP cells, GFP/RFP fluorescence | GFP/RFP ratio change, % at 20 µM | AID 651647, 2012 | GFP/RFP ratio fluorescence, overnight; percent of plate control window, DMSO zero | actives 0.061% (n = 360,000);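 active = GFP/RFP ratio change of at least 30% with cell ATP level not reduced by more than half and red fluorescence within 50% of control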; note: strong numbers were not always called active
#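 Assay system – RFP-PRO-GFP reporter HT1080 cells · Compound dosing – single dose of 20 µM compound, 1% DMSO final · Incubation – overnight compound exposure at 37 °C · Measure – GFP/RFP fluorescence ratio · Benchmarks – DMSO wells and RFP-L50D-GFP cells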
# eIF4H inh retest – recorded beside eIF4H inh, whose call it bears; inhibition, %; compound at 20 µM; confirmation average;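 mean of two retest wells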
# PABP polyA inh retest – second read-out of PABP polyA inh, no call of its own (marks repeat the call); inhibition, %; compound at 20 µM; confirmation repeats;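 mean of two retest wells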
# MT1-MMP act inh RFP – recorded beside MT1-MMP act inh, whose call it bears; RFP signal change, %; measured here: RFP expression control read;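 0 = vehicle wells; hits needed this value within 50% of zero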
# Active calls of the source: *; i = inactive; ? = inconclusive; . = not tested or not shown; [ ] = dose if it differs, or a comment.
SMILES,Rce1 inh,PABP polyA inh,Yeast UUG start,eIF4H inh,HIV Env fusion,CSC inhib,MT1-MMP act inh,MT1-MMP act inh RFP,others
COc1ccc(NC(=O)N[C@H]2C=C[C@@H](CC(=O)NC3CCC3)O[C@@H]2CO)cc1,.,.,-3,.,-4[16.7 µM],.,0,10,
CCOc1ccc(NC(=O)CCc2nnc3ccc(N4CCN(C)CC4)nn23)cc1,i,6,-11,-6,-4,2,-3,4,
CCOC(=O)N/N=C\c1cccc(OC)c1,i,5,.,-4,-94,.,-2,1,
Cc1nn(-c2ccccc2)c(Cl)c1/C=N/NC(=O)CCNc1n[nH]c(=O)[nH]c1=O,i,-6,.,-4,.,-17,.,.,
O=C(NCCO)c1cccc(Cl)c1,i,4,1,-8,-126,-10,0,6,
COc1ccc(NC(=O)COC(=O)[C@@H]2CCCN2C(=O)c2cccs2)cc1,i,-7,2,-10,11,-3,3,5,
COC(=O)CCc1c(C)c(C(=O)c2cc(OC)c(OC)c(OC)c2)c2ccccn12,i,8,-10,9,16,23,-1,-2,
COC(=O)c1ccc(OC(=O)CCN2C(=O)C3C4c5ccccc5C(c5ccccc54)C3C2=O)cc1 (stereo unspecified),i,-1,0,-12,15,-1,-7,-5,
O=S(=O)(Nc1cccnc1)c1cccnc1,.,.,-3,.,5,.,-3,5,
COc1ccc(C2SC[C@@H](C(=O)O)N2C(C)=O)cc1 (stereo partly specified),i,-10,-7,-10,.,-6,1,-1,
CCS(=O)(=O)C1=NSC2=NC(=O)/C(=C\c3ccc(OS(=O)(=O)c4ccccc4)cc3)C(=N)N21,i,11,-8,22,.,6,-7,3,
NNc1nnc2c3cc(F)ccc3n(CCc3ccccc3)c2n1,i,-4,.,-3,24,15,7,2,
Cc1ccc(C2CCN(C(=O)Nc3ccccc3)C2)cc1 (stereo unspecified),i,-2,-4,-5,.,-1,3,2,
NC(=O)CC(NC(=O)c1ccccc1)c1ccc(NC2CCCC2)c([N+](=O)[O-])c1 (stereo unspecified),i,-3,-9,13,14,-4,15,-5,
COc1cc(/C=C/C(=O)OCC(=O)Nc2ccccc2Sc2ccc(Cl)cc2)ccc1O,i,20,-6,-13,29,16,-5,-13,
CCOc1ccc(NC(=O)c2ccc3c(c2)N(C)CCS3)cc1,.,.,-17,.,-69,.,4,5,
Cc1cc(NC(=O)c2ccccc2)cc(NC(=O)c2ccccc2)c1C,i,-3,-3,5,-9,22,-3,2,
Cc1ccc2[nH]c(=O)c(CC=C(Cl)Cl)c(C)c2c1,i,9,14,-9,-23,0,2,0,
COc1ccc(C)cc1NC(=O)C(NCC(O)c1ccccc1)c1ccccc1 (stereo unspecified),i,-3,-7,5,30,-9,-2,-4,
CCC(C)(C)NC(=O)Cc1ccc(OC)c(OC)c1,i,4,-6,5,-12,-1,2,1,
CN(C)c1ccc(C=Cc2nccc3ccccc23)cc1,.,.,9,.,-196,.,11,55,
COCCNC(=O)c1cccc(OC2CCN(Cc3ccc(F)c(OC)c3)CC2)c1,i,2,0,12,-4,-15,-1,-10,
O=C(Nc1nccs1)c1ccc(COc2ccc(Cl)cc2)o1,i,-2,.,-12,.,.,-1,2,
C#CCOCCOCCOCCNc1nc(N2CCN(C(=O)[C@H]([C@@H](C)CC)n3cc([C@@H](N)CO)nn3)CC2)nc(N2CCN(C(=O)[C@H]([C@@H](C)CC)n3cc([C@@H](N)CC(C)C)nn3)CC2)n1,i,?,78,?,.,-12,-7,1,
NC(=O)C1CCN(C(=O)CSc2ncccn2)CC1,i,-7,-5,-2,-10,-9,2,3,
SMILES,Rce1 inh,PABP polyA inh,Yeast UUG start,eIF4H inh,HIV Env fusion,CSC inhib,MT1-MMP act inh,MT1-MMP act inh RFP,others
CC(C)c1ccc(Nc2nnns2)cc1,i,12,.,1,-7,-19,-4,-1,
CC1(C(=O)Nc2cccc(Oc3ccccc3)c2)Cc2c(-c3ccc4c(c3)OCO4)ccnc2O1 (stereo unspecified),.,.,3,.,-232,.,9,-7,
O=C1CCc2cc(NS(=O)(=O)c3ccc(Cl)cc3)cc3c2N1CC3,i,.,.,.,3,9,3,0,
Cc1ccsc1S(=O)(=O)N1CCCC(CCC(=O)NCc2ccccc2F)C1 (stereo unspecified),i,1,.,-3,12,-16,-3,-5,
O=C(NCc1ccco1)C1Cc2c(-c3cccc(F)c3)ccnc2O1 (stereo unspecified),.,.,-20,.,-170,.,3,-8,
Cc1ccccc1Cn1ccc(-c2ccc3c(c2)OCO3)n1,i,0,-15,-3,-30,-5,0,-2,
COc1ccc(CN2CC(=O)N(c3cc(Cl)ccc3C)C2=S)cc1OC,i,3,-6,-7,-9,5,4,-4,
O=C(c1ccco1)N1CCN(S(=O)(=O)c2c(Cl)cccc2Cl)CC1,i,0,-24,-10,6,.,-1,-2,
CC1CCCC(NC(=O)COC(=O)[C@@H](NC(=O)c2ccccc2Cl)C(C)C)C1C (stereo partly specified),.,.,-3,.,-9,5,-2,5,
Cc1ccc(Nc2ccncc2S(N)(=O)=O)cc1,i,.,7,.,14,-15,-1,-1,
Cc1ccccc1N(CC(=O)N/N=C/c1cc(Br)c(C)o1)S(C)(=O)=O,i,13,.,1,.,0,-2,-1,
O=C(Nc1ccc2c(c1)OCO2)c1n[nH]c(=O)c2ccccc12,i,0,-5,54,-10,0,1,-1,eIF4H inh retest=40;PABP polyA inh retest=19
COc1ccc(CN(CC(=O)NCC2CCCO2)C(=O)CNS(=O)(=O)c2ccc(C)cc2)cc1 (stereo unspecified),i,-10,8,-2,.,-7,5,6,
Cc1cccc(NNC(=O)c2c(F)cccc2Cl)c1,i,8,-6,-6,12,4,-6,1,
CCOc1ccccc1N(CC(=O)OC)S(C)(=O)=O,i,-1,-15,-4,.,.,-1,1,
Cc1c(Cl)cccc1NC(=O)CN(C1CCCCC1)S(C)(=O)=O,i,0,6,-3,13,-12,-4,-1,
O=C(C[C@H]1C/C=C\CC[C@@H](Cc2ccc(F)cc2)C(=O)OC[C@H]2CCCN2C1=O)N[C@@H](CO)Cc1ccccc1,.,.,-1,.,-25,12,-1,-5,
COc1ccc(CC(NC(C)=O)C(=O)N2CCN(C(=O)Nc3ccc(Cl)cc3)CC2)cc1OC (stereo unspecified),.,-7,.,-9,-1,-1,-3,-5,
O=C(NCCc1ccccc1C(F)(F)F)C1CCC(=O)N(CCCN2CCCC2=O)C1 (stereo unspecified),i,-5,-13,0,-11,0,-2,1,
CCOC(=O)CN1C(=O)C(=O)N(Cc2ccccc2F)C1=O,i,3,6,4,-2,-9,-1,0,
O=C(CCSc1ccccc1)N1CCOCC1,i,-6,-11,0,.,.,2,2,
COc1ccc(C(=O)NCCN2CCN(C(=O)c3ccc(OC)c(OC)c3)CC2)cc1OC,.,7,-3,0,-20,-9,3,7,
CCOc1cc(C(=O)N(CC)CC(=O)Nc2c(F)cccc2F)ccc1OCC(=O)N1CCCCC1,i,.,-10,.,2,2,-5,-2,
Cc1cc(NS(=O)(=O)c2ccc(NC(=O)c3ccco3)cc2)nc(C)n1,i,-5,-15,-7,-157,-2,-6,0,
c1csc(CNc2ncnc3ccc(-c4ccoc4)cc23)c1,.,.,-6,.,?,24,-5,-18,

# Entries from the list above containing an aryl thioether with sulfur outside any ring, in the order listed:
SMILES,Rce1 inh,PABP polyA inh,Yeast UUG start,eIF4H inh,HIV Env fusion,CSC inhib,MT1-MMP act inh,MT1-MMP act inh RFP,others
COc1cc(/C=C/C(=O)OCC(=O)Nc2ccccc2Sc2ccc(Cl)cc2)ccc1O,i,20,-6,-13,29,16,-5,-13,
NC(=O)C1CCN(C(=O)CSc2ncccn2)CC1,i,-7,-5,-2,-10,-9,2,3,
O=C(CCSc1ccccc1)N1CCOCC1,i,-6,-11,0,.,.,2,2,

# Continuation.
SMILES,Rce1 inh,PABP polyA inh,Yeast UUG start,eIF4H inh,HIV Env fusion,CSC inhib,MT1-MMP act inh,MT1-MMP act inh RFP,others
O=C(Nc1ccc(Cl)c(Cl)c1)c1cccc(S(=O)(=O)NCc2cccnc2)c1,i,4,.,-4,?,16,4,-31,
Cc1[nH]c2c(C)cccc2c1CC(=O)O,i,54,-13,7.2*,1,-10,-3,2,eIF4H inh retest=88*;PABP polyA inh retest=50
c1ccc(-c2cc3c(nn2)CCc2nonc2-3)cc1,i,-3,-4,14,.,-8,-1,2,
COC(=O)c1ccc(Oc2ccc(C(F)(F)F)cn2)cc1,i,-10,.,0,10,0,3,6,
O/N=C1\CC/C(=N\O)c2nn(-c3ccccc3Cl)nc21,i,-1,-18,-3,27,-5,-3,2,
O=C1N=C2SCCN2/C1=C\c1ccccc1Cl,i,-5,-12,-8,.,-2,1,2,
CCOc1ccc(S(=O)(=O)N2CCCC(C(=O)N3CCN(c4ccccc4)CC3)C2)cc1 (stereo unspecified),i,-6,11,-3,0,-2,-3,-19,
C#CCNC(=O)C1CCN(c2cc(C)nc(-c3ccccc3)n2)CC1,i,5,.,-5,-6,13,-2,-3,
CNS(=O)(=O)c1cc(Br)ccc1S(=O)c1ccccc1C(=O)O (stereo unspecified),i,7,.,-6,-3,-8,-4,-1,
O=[N+]([O-])c1ccc(Cc2cncc(O)c2)cc1,i,-3,-14,1,-2,-2,2,0,
O=C(CN1C(=O)CSc2ccccc21)NCCC1=CCCCC1,i,6,-12,-7,.,-3,5,3,
CC(=O)Nc1nnc(C2=COCCO2)o1,i,?,.,3,-4,-9,-3,3,
COc1cc(OC)cc(C(=O)Nc2nc(-c3ccccc3)c(-c3ccccc3)o2)c1,i,2,.,13,6,24,0,-8,
COc1ccc(OC)c(-c2csc(NC(=O)CSc3ccccc3)n2)c1,i,5,.,5,.,33,-8,-9,
COc1cc(S(=O)(=O)NCc2ccccc2)ccc1Br,i,-9,.,0,-11,-14,3,4,
OCCOCCn1c(C(CO)Nc2nc(-c3ccc(F)cc3)cs2)nc2ccccc21 (stereo unspecified),i,.,-20,.,-2,-4,4,4,
Cc1ccccc1CC1(CO)CCCN(Cc2cn[nH]c2-c2ccccc2)C1 (stereo unspecified),i,-12,-9,-7,6,-6,-5,1,
c1ccc(-c2ccc(-c3ccccc3)[nH]2)cc1,.,.,-9,.,-53,.,-2,-7,
CCOC(=O)C1CCN(Cc2cc(Cl)c3ccccc3c2O)CC1,i,10,-22,1,.,.,-5,6,
CC(NC(=O)COC(=O)c1ccc(OCC2CCCO2)cc1)c1ccccc1Cl (stereo unspecified),.,.,-3,.,3,6,2,-1,
N#CCc1ccc(NC(=O)Nc2cccc(Cl)c2)cc1,i,-10,.,5,.,?,1,-8,
N#Cc1ccc(OCC(O)CN2CCN(C(c3ccccc3)c3ccccc3)CC2)cc1 (stereo unspecified),i,0,-13,-6,3,12,-6,0,
CCCCn1c(CNC(=O)CC)nc2ccccc21,i,2,-14,-5,17,-15,-1,-1,
CCN1CCN(c2nc(N)c([N+](=O)[O-])c(Nc3ccc(C)cc3)n2)CC1,i,-5,-8,-9,-13,1,1,1,
C=CCNC(=O)CSc1nnc(-c2ccccc2Br)n1-c1cccc(C(F)(F)F)c1,i,1,-11,-1,.,-1,0,-3,

# Screening results (PubChem BioAssay)
